Screening data (PubChem)
Vaccinia stage: blocks a specific stage of Vaccinia orthopoxvirus infection; Vaccinia-infected cells, mCherry/Venus stage reporter fluorescence; active compounds read low; some inactives read as strong as hits; activity change (mCherry), % (no concentration beside the values); hit rate 0.01% among 89,000;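 active = mCherry past -33% and 40 or more points under the early reporter, replicates agreeing; inconclusive = past -33% without that gap or agreement; tested in A549 cells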;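 note: scaled between vehicle wells and reference inhibitor wells; 23 nL library stock went into each well; one replicate is shown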
Vaccinia stage Venus: second read-out of Vaccinia stage, no call of its own (marks repeat the call); activity change (Venus), %; measured here: Venus reporter, other viral stage;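 negative = less Venus signal; first of two replicates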
* marks the source's active call; other numbers are inactive results; ? = inconclusive; / = not tested or not shown; & = joins results of further samples. A portion of the library; the hit share may differ from the screen's.

SMILES | Vaccinia stage | Vaccinia stage Venus
C[C@H]1CN([C@@H](C)CO)C(=O)Cc2cc(NC(=O)C3CCCCC3)ccc2O[C@H]1CN(C)C(=O)Nc1ccc(F)cc1 | 11.2 | 17.5
COc1ccc(S(=O)(=O)Nc2cccc3c2O[C@@H](CN(C)Cc2ccc(Oc4ccccc4)cc2)[C@H](C)CN([C@H](C)CO)C3=O)cc1 | -9.5 | 5.6
Cc1ccc(S(=O)(=O)Nc2ccc3c(c2)C(=O)N([C@H](C)CO)C[C@H](C)[C@@H](CN(C)C(=O)c2ccccc2)OCCCC[C@@H](C)O3)cc1 | 22.1 | 8.9
COCC#Cc1ccc2c(c1)O[C@H](CN(C)S(=O)(=O)c1ccc(F)cc1)[C@@H](C)CN([C@@H](C)CO)S2(=O)=O | -16.4 | -11.5
COc1ccccc1C#Cc1ccc2c(c1)[C@@H]1[C@@H](CCN1S(=O)(=O)c1cn(C)cn1)[C@@H](CO)N2 | -9.5 | -8.2
CN(C)C(=O)c1cccc(-c2ccc([C@H]3[C@H]4CN(C(=O)C5CCCC5)CCCCN4[C@H]3CO)cc2)c1 | 15.5 | 0.2
COc1ccc(CN(C)C[C@H]2OCCCC[C@H](C)Oc3ccc(NC(=O)Nc4ccc(F)cc4)cc3C(=O)N([C@H](C)CO)C[C@@H]2C)cc1 | ? | /
COc1ccccc1NC(=O)N(C)C[C@H]1Oc2ncc(Br)cc2C(=O)N([C@@H](C)CO)C[C@H]1C | -4.7 | -2.8
COCC(=O)N1[C@H](CO)[C@@H]2c3ccccc3N(C(=O)c3cccc(OC)c3)C[C@@H]21 | 20.0 | 9.3
O=C(NCC[C@H]1CC[C@H](NC(=O)c2ccccc2F)[C@@H](CO)O1)c1cnccn1 | 11.7 | 13.1
Cc1ccc(S(=O)(=O)N2CC[C@@H]3[C@@H](CO)Nc4ccc(C#Cc5cccc(F)c5)cc4[C@@H]32)cc1 | 4.9 | 10.9
C[C@@H]1CN([C@H](C)CO)C(=O)c2cc(NC(=O)Cc3ccccc3)ccc2O[C@@H](C)CCCCO[C@H]1CN(C)C(=O)Nc1ccc(F)cc1 | -13.9 | -7.4
COc1ccccc1-c1cnc2c(c1)C(=O)N([C@H](C)CO)C[C@@H](C)[C@H](CN(C)C(=O)c1ccncc1)O2 | 8.9 | -4.1
O=C(C[C@@H]1CC[C@H](NS(=O)(=O)c2ccc(F)cc2)[C@@H](CO)O1)NCCc1ccncc1 | 12.9 | 8.1
CC(C)NC(=O)Nc1cccc2c1O[C@H](CN(C)C(=O)Nc1ccccc1)[C@@H](C)CN([C@@H](C)CO)C2=O | 12.8 | 3.8
C[C@@H]1CCCCO[C@@H](CN(C)S(=O)(=O)c2ccc(F)cc2)[C@@H](C)CN([C@H](C)CO)C(=O)c2cc(NS(C)(=O)=O)ccc2O1 | 8.8 | 6.8
O=C(C[C@H]1C[C@H]2c3cc(NS(=O)(=O)c4ccc(F)cc4)ccc3O[C@H]2[C@@H](CO)O1)N1CCOCC1 | 10.1 | 3.1
CO[C@@H]1CN(C)C(=O)c2cc(NC(=O)C3CCC3)ccc2OC[C@H](C)N(Cc2nccs2)C[C@H]1C | 5.8 | 4.3
OC[C@@H]1[C@H](c2ccc(-c3cccc(F)c3)cc2)[C@H]2CN(CCC(F)(F)F)CCCCN12 | ? | /
Cc1noc(C)c1S(=O)(=O)Nc1cccc2c1O[C@H](CN(C)C(=O)Nc1ccc(C(F)(F)F)cc1)[C@H](C)CN([C@H](C)CO)C2=O | -28.2 | -11.0
COc1ccc(CCNC(=O)[C@@]2(Sc3ccc(C)cc3)CC(=O)N(C(C)C)[C@@H]2c2ccc(CO)cc2I)cc1 | 8.5 | 4.3
O=C(C[C@H]1CC[C@H](NC(=O)Cc2ccccn2)[C@@H](CO)O1)NCCc1ccccc1 | 7.3 | 11.3
C[C@H](CO)N1C[C@H](C)[C@@H](CN(C)C(=O)c2cccnc2)Oc2ncc(Br)cc2C1=O | 15.6&21.1 | 10.9&10.0
COc1ccc(-c2cnc3c(c2)C(=O)N([C@H](C)CO)C[C@H](C)[C@H](CN(C)Cc2cccc(C(F)(F)F)c2)O3)cc1 | ? | /
C[C@H](CO)N1C[C@H](C)[C@H](CN(C)S(=O)(=O)c2cn(C)cn2)OCCCC[C@H](C)Oc2ccc(NC(=O)c3ccncc3)cc2C1=O | 9.6 | 8.4
CC(C)NC(=O)Nc1ccc2c(c1)C(=O)N([C@H](C)CO)C[C@H](C)[C@@H](CN(C)S(=O)(=O)c1ccc(Cl)cc1)OCCCC[C@H](C)O2 | -7.8 | -2.4
NCC[C@@H]1CC[C@H](NS(=O)(=O)c2ccc(Cl)cc2)[C@H](CO)O1 | -6.6 | 4.0
Cc1ccccc1-c1cnc2c(c1)C(=O)N([C@H](C)CO)C[C@@H](C)[C@@H](CN(C)Cc1cccnc1)O2 | 5.9 | 8.2
O=C(NCC(F)(F)F)[C@@H]1[C@@H](CO)[C@@H]2Cn3c(cccc3=O)[C@H]1N2CCC(F)(F)F | 13.5 | 11.9
O=C(N[C@H]1CC[C@H](CCn2cc(-c3ccccc3)nn2)O[C@H]1CO)c1ccccc1F | ? | /
C[C@@H]1CN([C@@H](C)CO)C(=O)c2cc(NC(=O)CCC(F)(F)F)ccc2O[C@@H](C)CCCCO[C@@H]1CN(C)Cc1ccc2c(c1)OCO2 | ? | /
C[C@H](CO)N1C[C@H](C)[C@H](CN(C)Cc2cccnc2)Oc2cc(C#C[C@@H](C)O)ccc2S1(=O)=O | -3.2 | -7.6
CO[C@H]1CC[C@@H]2CCN(C)C(=O)CC3(CCCCC3)CN(C)C(=O)c3cccc(C#N)c3OC[C@H]1O2 | 10.0 | 1.3
C[C@H]1CCCCO[C@@H](CN(C)Cc2ccccc2)[C@@H](C)CN([C@@H](C)CO)C(=O)c2cc(NC(=O)Nc3ccc(C(F)(F)F)cc3)ccc2O1 | -8.0 | -4.3
Cc1noc(C)c1S(=O)(=O)Nc1ccc2c(c1)C(=O)N([C@@H](C)CO)C[C@@H](C)[C@H](CN(C)C)O2 | 9.8 | 2.1
CNC[C@@H]1Oc2ccc(NC(=O)NC3CCCCC3)cc2C(=O)N([C@H](C)CO)C[C@@H]1C | -18.6 | -22.4
CO[C@@H]1CN(C)C(=O)c2cc(NC(=O)c3ccc4c(c3)OCO4)ccc2OC[C@@H](C)N(CC2CC2)C[C@H]1C | ? | /
CN1C(=O)c2cc(NC(=O)C3CC3)ccc2OC[C@H]2O[C@H](CC(=O)NCCc3ccncc3)CC[C@H]21 | 6.7 | 1.2
CCCC#Cc1ccc([C@@H]2[C@@H](CO)N3C(=O)CN(S(=O)(=O)Cc4ccccc4)C[C@H]23)cc1 | -17.0 | -16.0
CO[C@H]1CN(C)C(=O)c2cc(C#N)ccc2OC[C@@H]2O[C@H](CC[C@H]2OC)CCN(C)C(=O)[C@H]1C | 9.5 | -3.2
CNC[C@@H]1OCCCC[C@H](C)Oc2ccc(NC(=O)Nc3ccc(F)cc3)cc2C(=O)N([C@H](C)CO)C[C@@H]1C | -1.9 | 5.9
COCC(=O)N1[C@H](CO)[C@H]2c3ccccc3N(C(=O)C3CC3)C[C@H]21 | 5.0 | 6.5
CN(C)CC(=O)N1CC(=O)N2[C@H](CO)[C@@H](c3ccc(/C=C/c4ccccc4)cc3)[C@H]2C1 | -5.0 | -2.9
COc1ccc(CN(C)C[C@H]2OCCCC[C@@H](C)Oc3ccc(NC(=O)NC4CCCCC4)cc3C(=O)N([C@@H](C)CO)C[C@H]2C)cc1 | ? | /
O=C(C[C@H]1C=C[C@@H](NS(=O)(=O)c2ccccc2F)[C@@H](CO)O1)NCCCN1CCOCC1 | 20.6 | 7.4
O=C(N[C@@H]1CC[C@H](CCNC(=O)c2cnccn2)O[C@@H]1CO)c1ccc2c(c1)OCO2 | 6.8 | 2.8
O=C(O)C[C@@H]1CC[C@@H](NC(=O)c2ccccc2F)[C@@H](CO)O1 | -1.8 | -2.0
C[C@@H]1CCCCO[C@@H](CN(C)C(=O)Nc2ccc3c(c2)OCO3)[C@@H](C)CN([C@@H](C)CO)C(=O)c2cc(NC(=O)Nc3ccc(C(F)(F)F)cc3)ccc2O1 | 3.9 | 3.4
O=C(Nc1ccccc1)N1CCCCN2[C@H](CO)[C@@H](c3ccc(-c4ccccc4)cc3)[C@@H]2C1 | ? | /
C[C@@H]1CN([C@H](C)CO)C(=O)c2cc(NC(=O)Cn3cnnn3)ccc2O[C@H]1CN(C)Cc1ccc2c(c1)OCO2 | 12.1 | 12.1
C[C@@H]1CN([C@@H](C)CO)C(=O)Cc2cc(NC(=O)c3ccncc3)ccc2O[C@@H]1CN(C)Cc1ccc(-c2ccccc2)cc1 | -29.8 | -22.3
C[C@H](CO)N1C[C@H](C)[C@H](CN(C)S(=O)(=O)c2ccc(Cl)cc2)Oc2ccc(NC(=O)Nc3ccc4c(c3)OCO4)cc2C1=O | -15.4 | -6.0
COCC#Cc1ccc(CC[C@H]2O[C@H]3CC[C@@H](CO)O[C@H]3C[C@H]2NC(=O)Nc2c(C)noc2C)cc1 | 18.6 | 12.1
C[C@@H]1CN([C@H](C)CO)C(=O)c2cccc(NC(=O)c3ccncc3)c2O[C@H]1CN(C)Cc1ccc(Oc2ccccc2)cc1 | ? | /
CN1C(=O)c2cc(NC(=O)C3CC3)ccc2OC[C@@H]2O[C@H](CC(=O)O)CC[C@@H]21 | 7.9 | 7.9
CO[C@@H]1CC[C@@H]2CCOc3ccc(C#N)cc3C(=O)N(C)C[C@@H](C)C(=O)N(C)C[C@H]1O2 | 16.4 | 13.5
C[C@H](CO)N1C[C@H](C)[C@@H](CN(C)S(C)(=O)=O)Oc2ccc(NC(=O)CCN3CCOCC3)cc2C1=O | 1.4 | 3.9
C[C@@H]1CN([C@@H](C)CO)C(=O)c2cccc(N(C)C)c2O[C@H]1CN(C)Cc1ccc2c(c1)OCO2 | 5.5 | 6.0
O=C(N[C@@H]1C=C[C@H](CC(=O)N2CCOCC2)O[C@@H]1CO)c1ccc2c(c1)OCO2 | -1.7 | -3.5
O=S(=O)(c1ccc(F)cc1)N1CCCCN2[C@H](CO)[C@H](c3ccc(-c4ccccc4F)cc3)[C@H]2C1 | ? | /

(more compounds)
SMILES | Vaccinia stage | Vaccinia stage Venus
C[C@H](CO)N1C[C@H](C)[C@H](CN(C)Cc2ccncc2)Oc2ccc(NC(=O)Nc3ccc(C(F)(F)F)cc3)cc2C1=O | -2.4 | -4.4
CNC[C@H]1Oc2ccc(NC(=O)Nc3ccccc3)cc2C(=O)N([C@@H](C)CO)C[C@@H]1C | 5.3 | 0.3
COCC(=O)NC[C@H]1N[C@H](CO)[C@H]1c1ccc(C2=CCCCC2)cc1 | -19.9 | -13.1
O=C(C[C@H]1C[C@@H]2c3cc(NC(=O)c4ccc5c(c4)OCO5)ccc3O[C@@H]2[C@H](CO)O1)NCCc1ccccc1 | -3.9 | 3.2
Cc1ccc(S(=O)(=O)N(C)C[C@H]2Oc3c(NS(C)(=O)=O)cccc3C(=O)N([C@@H](C)CO)C[C@H]2C)cc1 | 7.5 | -0.6
C[C@H](CO)N1C[C@H](C)[C@H](CN(C)Cc2ccncc2)Oc2c(NC(=O)c3ccncc3)cccc2C1=O | -2.8 | 0.8
C[C@H](CO)N1C[C@H](C)[C@H](CN(C)Cc2cccnc2)Oc2ncc(-c3cccc(C#N)c3)cc2C1=O | 16.6 | 5.4
COc1ccc(S(=O)(=O)Nc2cccc3c2O[C@H](CN(C)S(C)(=O)=O)[C@H](C)CN([C@H](C)CO)C3=O)cc1 | 2.3 | 7.8
C[C@H](CO)N1C[C@H](C)[C@@H](CN(C)CC2CCCCC2)Oc2ccc(N(C)C)cc2CC1=O | 2.4 | 10.5
COc1ccc(S(=O)(=O)Nc2ccc3c(c2)C(=O)N([C@@H](C)CO)C[C@@H](C)[C@@H](CN(C)Cc2ccncc2)OCCCC[C@H](C)O3)cc1 | 14.9 | -2.7
C[C@H](O)C#Cc1ccc2c(c1)O[C@H](CN(C)C(=O)Nc1ccccc1)[C@@H](C)CN([C@@H](C)CO)S2(=O)=O | 17.9 | 21.7
COc1ccccc1CNC(=O)C[C@H]1C[C@H]2c3cc(NC(=O)Nc4ccc(C(F)(F)F)cc4)ccc3O[C@H]2[C@@H](CO)O1 | 1.2 | 5.3
CN1C(=O)c2cc(NC(=O)Nc3ccccc3F)ccc2OC[C@H]2O[C@H](CC(=O)NCc3ccc(-c4ccccc4)cc3)CC[C@@H]21 | -21.6 | -17.1
CCC(=O)Nc1ccc2c(c1)C(=O)N(C)C[C@H](OC)[C@@H](C)CN(Cc1cccnc1)[C@H](C)CO2 | -5.8 | 1.1
O=C(Nc1cc(F)ccc1F)N1CCCCN2[C@H](C1)[C@H](c1ccc(C3=CCCCC3)cc1)[C@@H]2CO | -28.2 | -27.6

Part of the list above, with two lines to a compound:
The line under a structure holds: Vaccinia stage	Vaccinia stage Venus
> C[C@@H]1CN([C@@H](C)CO)C(=O)c2cccc(N(C)C)c2O[C@H]1CN(C)Cc1ccc2c(c1)OCO2
    5.5	6.0
> O=C(N[C@@H]1C=C[C@H](CC(=O)N2CCOCC2)O[C@@H]1CO)c1ccc2c(c1)OCO2
    -1.7	-3.5
> O=S(=O)(c1ccc(F)cc1)N1CCCCN2[C@H](CO)[C@H](c3ccc(-c4ccccc4F)cc3)[C@H]2C1
    ?	/
> C[C@H](CO)N1C[C@H](C)[C@H](CN(C)Cc2ccncc2)Oc2ccc(NC(=O)Nc3ccc(C(F)(F)F)cc3)cc2C1=O
    -2.4	-4.4

Next part.
SMILES | Vaccinia stage | Vaccinia stage Venus
CO[C@@H]1CC[C@@H]2CCOc3c(C#N)cccc3C(=O)N(C)C[C@H](C)C(=O)N(C)C[C@H]1O2 | 14.4 | 8.8
O=C(NC1Cc2ccccc2C1)[C@@H]1[C@@H](CO)[C@@H]2Cn3c(ccc(C4=CCCCC4)c3=O)[C@@H]2N1CC1CC1 | -7.0 | -1.7
C[C@H](CO)N1C[C@H](C)[C@@H](CN(C)Cc2ccncc2)Oc2c(NC(=O)c3nc4ccccc4s3)cccc2C1=O | ? | /
CC(C)NC(=O)N(C)C[C@H]1Oc2ccc(NS(C)(=O)=O)cc2CC(=O)N([C@@H](C)CO)C[C@H]1C | 17.2 | 11.4
